Assay outcomes from PubChem.
Rce1 inh – yeast Ras-converting enzyme inhibition; yeast membranes, quenched prenylated peptide cleavage fluorescence; calls only; hit rate 0.27% among 290,000; AID 2563;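 active = fall in fluorescence gain of 50% or more versus controls, with final raw signal at or below 3038400; inconclusive = same 50% fall but final raw signal above 3038400; inactive = fall in fluorescence gain under 50%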;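 also: plate controls were neutral control wells for no effect and wells lacking membranes for full effect; tested at 10 µM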
Target sequence (Q03530 whole entry, looked up): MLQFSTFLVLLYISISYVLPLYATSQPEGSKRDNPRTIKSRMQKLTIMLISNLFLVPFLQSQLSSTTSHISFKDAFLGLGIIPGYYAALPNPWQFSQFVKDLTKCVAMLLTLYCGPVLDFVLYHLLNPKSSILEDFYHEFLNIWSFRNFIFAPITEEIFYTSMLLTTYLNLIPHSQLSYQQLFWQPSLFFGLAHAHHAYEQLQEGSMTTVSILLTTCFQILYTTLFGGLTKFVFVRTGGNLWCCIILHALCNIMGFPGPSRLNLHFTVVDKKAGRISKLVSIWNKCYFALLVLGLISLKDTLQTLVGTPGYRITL
eIF4H inh – inhibitors of RNA binding by human eIF4H; eIF4H fluorescence polarization binding assay; Q15056; AID 2012; inhibition, % at 35 µM; hit rate 0.94% among 290,000;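 active = 50% or more with normal probe brightness, or confirmed in later tests; inconclusive = above 50% with abnormal brightness, or retests that disagree; inactive = below 50% or failed in later tests; about a fifth of its hits are not listed in these tables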;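 also: calls also rest on retests at 20 µM and on dose response follow-up; 0% = protein and probe with vehicle and 100% = probe without protein; strong numbers were not always called active; many hits fall short of the cut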
HIV Env fusion – blocks HIV Env-driven cell-cell fusion | HeLa-JRFL Env/CEM21 cell fusion, luciferase | inhibition, % at 12.3 µM | hit rate 1.1% among 360,000 | AID 651610;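 active = mean replicate inhibition score of at least 50 and every replicate individually at or above 50; inconclusive = only one of the two criteria met; inactive = mean below 50 and not all replicates reaching 50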;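 also: 0% = plate neutral controls and 100% = maraviroc near 300 nM; one replicate is shown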
Yeast UUG start – alters start codon recognition fidelity in yeast; S. cerevisiae UUG-firefly luciferase reporter, luminescence/redox ratio; activity score, % at 18.7 µM; hit rate 0.13% among 350,000; AID 602363;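 active = replicate mean at a twofold rise or more, about +100% in these data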;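 also: firefly luciferase made from a UUG start codon reports start codon fidelity; reporter light over untreated wells divided by growth signal over untreated wells; some hits fall short of that in this replicate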
CSC inhib – blocks cancer stem cells; inhibition, % at 7.5 µM; AID 2717; hit rate 1.1% among 300,000; cancer stem cell-like cells viability, luminescence;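 active = mean at 75% or more and at least half the replicates too; inconclusive = mean and replicates disagree; tested in HMLE shEcad cells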;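 also: 0% = median of negative and 100% = median of positive control wells; the first replicate is given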
PABP FP inh – blocks human PABP binding to poly(A) RNA | inhibition, % at 35 µM | P11940 | hit rate 1% among 290,000 | fluorescence polarization;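 active = 50% or more with normal probe brightness, or confirmed in later tests; inconclusive = above 50% with abnormal brightness, or retests that disagree; inactive = below 50% or failed in later tests; about a fifth of its hits are not listed in these tables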;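 also: calls also rest on retests at 20 µM and on dose response follow-up; controls were probe without protein and protein plus probe with vehicle; some compounds called inactive have numbers as strong as hits; many hits fall short of the cut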
Target sequence (P11940 whole entry, looked up): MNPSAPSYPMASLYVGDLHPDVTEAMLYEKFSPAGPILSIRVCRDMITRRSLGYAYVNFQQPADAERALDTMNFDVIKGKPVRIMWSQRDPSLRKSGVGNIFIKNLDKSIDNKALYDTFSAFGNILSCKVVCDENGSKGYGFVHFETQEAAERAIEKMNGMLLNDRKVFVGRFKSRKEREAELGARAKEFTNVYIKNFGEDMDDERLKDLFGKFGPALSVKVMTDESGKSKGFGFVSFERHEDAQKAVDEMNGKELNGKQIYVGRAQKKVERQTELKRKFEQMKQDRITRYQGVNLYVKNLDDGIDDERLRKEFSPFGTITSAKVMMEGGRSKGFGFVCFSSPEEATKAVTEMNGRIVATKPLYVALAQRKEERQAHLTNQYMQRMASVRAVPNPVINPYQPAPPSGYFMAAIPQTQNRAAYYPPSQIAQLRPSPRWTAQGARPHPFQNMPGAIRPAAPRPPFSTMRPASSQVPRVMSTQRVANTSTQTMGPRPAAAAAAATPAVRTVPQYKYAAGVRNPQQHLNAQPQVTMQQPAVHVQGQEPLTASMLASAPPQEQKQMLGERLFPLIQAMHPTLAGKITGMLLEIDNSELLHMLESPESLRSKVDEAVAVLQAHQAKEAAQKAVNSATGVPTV
MT1-MMP act inh – inhibitors of human MT1-MMP activation; AID 651647; GFP/RFP ratio change, % at 20 µM; P50281; hit rate 0.061% among 360,000; HT1080 RFP-PRO-GFP cells, GFP/RFP ratio fluorescence, overnight; percent of plate control window, DMSO zero;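 active = GFP/RFP ratio change of at least 30% with cell ATP level not reduced by more than half and red fluorescence within 50% of control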; also: strong numbers were not always called active
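Read-out: GFP/RFP fluorescence ratio; Test system: RFP-PRO-GFP reporter HT1080 cells; Compound dosing: single-point 20 µM compound, 1% DMSO; Times: overnight compound exposure at 37 °C.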
eIF4H inh retest – further read-out of eIF4H inh, marked with its call; inhibition, %; compound at 20 µM; confirmation average;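 mean of two retest wells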
PABP FP inh retest – recorded beside PABP FP inh, whose call it bears; inhibition, %; compound at 20 µM; confirmation repeats;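 mean of two retest wells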
MT1-MMP act inh RFP – second read-out of MT1-MMP act inh, no call of its own (marks repeat the call); RFP signal change, %; measured here: RFP expression control read;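 0 = vehicle wells; hits needed this value within 50% of zero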
* marks the source's active call; other numbers are inactive results; i = inactive; ? = inconclusive; . = no result given. Some of the compounds tested; count on the stated rates, not on these rows.

SMILES | Rce1 inh | eIF4H inh | HIV Env fusion | Yeast UUG start | CSC inhib | PABP FP inh | MT1-MMP act inh | MT1-MMP act inh RFP | others
O=C(Cn1c(=S)[nH]c2ccccc2c1=O)N1CCC2(CC1)OCCO2 | . | -4 | -6 | -6 | -11 | 6 | 4 | 6
CNc1ccc2nc3ccccc3[n+](C)c2c1 | i | ? | -6 | -13 | 24 | ? | 67* | 48*
O=C1C(=O)N(c2ccccc2)P(=O)(N(CCCl)CCCl)N1c1ccccc1 | . | . | -79 | -11 | . | . | 2 | 0
CCNC(=S)N(C)CCc1cc2c(c(OC)c1C=C1C(=O)N(C)C(=O)N(C)C1=O)OCO2 | i | ? | -2 | -20 | 2 | ? | -4 | 1
O=C(Cc1ccccc1)N1CCN(Cc2ccc(F)cc2)CC1 | i | 12 | -1 | -5 | -7 | 4 | -1 | 1
COC(=O)C1=C(c2ccc(F)cc2OCc2ccccc2)C[C@@H]2CC[C@H]1N2C(=O)NCc1ccc(C)cc1 | . | . | 30 | -18 | 29 | . | -8 | -12
CCOP(=O)(OCC)C(NC(=O)c1cccc([N+](=O)[O-])c1)C(Cl)(Cl)Cl (stereo not drawn) | i | -7 | 35 | . | -16 | 1 | 4 | 0
CCP(=S)(CC)c1ccc(N(C)C)cc1 | i | 12 | -3 | -20 | 0 | -1 | 3 | 2
CCCCn1c(O)c(/C(C)=N/NC(=O)Nc2ccccc2)c(=O)[nH]c1=O | i | -10 | 3 | . | -18 | -2 | 4 | 3
CN1C[C@@H]2C[C@@H](c3cccn3-c3ccccn3)N3CCC[C@@]23C1=O | i | 44 | 19 | -5 | 5 | 27 | 0 | 5
COc1ccccc1CN1CCCCC1c1cccnc1 (stereo not drawn) | i | 17 | -5 | -8 | -8 | 3 | 3 | 3
CC1(C)CC2(CCO1)NCCN1C(=O)CSC12 (stereo not drawn) | i | -5 | . | -10 | -9 | -2 | -1 | 8
O=C(O)CC1OCC=C2CN3CCC45c6ccccc6NC4C1C2CC35 (stereo not drawn) | i | 7 | -8 | -22 | 0 | 10 | 1 | 3
Clc1cccc(CNCCc2ccc3c(c2)OCO3)c1 | i | 9 | 11 | -10 | -4 | -5 | -2 | 3
COc1ccc2c(c1)NP(=S)(Oc1ccccc1)N2 (stereo not drawn) | i | 89* | 1 | -20 | -15 | 62* | -14 | -5
CCOCCN1CCC(OC(C)=O)C(C)C1 (stereo not drawn) | i | 0 | -2 | -21 | -7 | -5 | -3 | 1
CSCCC(N=Cc1c(O)n(-c2ccc(Cl)cc2)c(=O)[nH]c1=O)C(=O)OC(C)(C)C (stereo not drawn) | i | -4 | -24 | -5 | 8 | 3 | 3 | 3
Cc1ccc(/C=C2\C(=O)NC(=S)N(c3ccccc3F)C2=O)s1 | . | 10 | 20 | . | 5 | 2 | 23 | 66
CCOCCc1c(O)[nH]c(=S)[nH]c1=O | i | -7 | 10 | -11 | -14 | -6 | 2 | 2
COc1ccc(/C=C2\C(=O)NC(=O)N(Cc3ccccc3)C2=O)c(OC)c1OC | i | 25 | 1 | -8 | -4 | 3 | -5 | 3
CCC(C)NC(=O)CCC(=O)OC1O[C@H]2OC3(C)CC[C@H]4[C@H](C)CCC(C1C)C24OO3 (stereo partly drawn) | i | 0 | 48 | -11 | 23 | -3 | -15 | -14
COc1ccc(/C=C2\C(=O)NC(=O)N(CCC3=CCCCC3)C2=O)c(OC)c1 | i | ? | 7 | 2 | 20 | -1 | -3 | 6
Cc1ccc(-[n+]2c(Cc3nn(-c4ccccc4)c(C)[n+]3-c3ccc(C)cc3)nn(-c3ccccc3)c2C)cc1 | . | . | -7 | -17 | . | . | -1 | 0
C=C(Cl)CSC(=S)N(CC)CC | . | . | . | 10 | 6 | . | -2 | 3
Cc1ccccc1N1CCN(Cc2ccc3c(c2)OCO3)CC1 | i | 0 | -5 | -25 | 15 | 2 | -5 | -5
Remaining list, next part.
SMILES | Rce1 inh | eIF4H inh | HIV Env fusion | Yeast UUG start | CSC inhib | PABP FP inh | MT1-MMP act inh | MT1-MMP act inh RFP | others
CC(C)Sc1nnc(OC(=O)N(C)C)n1-c1ccccc1 | i | 1 | 10 | . | 0 | 10 | 0 | 1
S=C1Nc2ccccc2Sc2ccccc21 | i | -6 | 15 | -15 | -6 | 0 | -2 | 1
CC(C)CCn1c(=O)c(C(=O)Nc2ccccc2S(N)(=O)=O)c(O)c2ccccc21 | i | 4 | ? | -6 | 47 | 2 | -6 | -12
CCc1nc2ccccc2c(=O)n1-c1ccccc1OC | i | 1 | -19 | -28 | -3 | 4 | 0 | 3
Cc1ccc(C)c(C2(O)CC(C)N(C)CC2C)c1 (stereo not drawn) | i | -11 | . | -18 | -6 | -8 | 1 | 3
CC(C)N1CCN(Cc2c[nH]c3ccccc23)CC1CCO (stereo not drawn) | i | 0 | -12 | -5 | . | -6 | 1 | 1
COc1ccccc1-n1c(O)c(C=NCc2ccc3c(c2)OCO3)c(=O)[nH]c1=O | i | -4 | 5 | -13 | -7 | 6 | 3 | 3
O=P1(N(CCCl)CCCl)NCCCO1 (stereo not drawn) | i | -1 | -5 | -6 | -21 | 4 | 2 | 4
CCCCS(=O)(=O)N1CCN(C(=N)N[N+](=O)[O-])CC1 | i | -3 | -5 | . | -8 | -16 | 1 | 3
Cc1cccc(CSc2nc3c(cc2C#N)CN(C)CC3)c1 | i | -10 | . | -20 | 37 | -5 | -1 | 4
CCN(CC)C(=O)c1ccc2c(c1)C1C=CCC1C(C(=O)O)N2 (stereo not drawn) | i | 85* | 11 | 4 | 9 | 65* | 20 | 18
Cc1nn(Cc2ccc(Cl)cc2Cl)c(Cl)c1C(=O)O | i | -4 | -10 | . | -1 | 2 | 5 | 2
CCCCn1c(N)c(N(CCOC)C(=O)CN2CC=C(c3ccccc3)CC2)c(=O)[nH]c1=O | i | 2 | 1 | . | -5 | -15 | -5 | 0
O=C(c1ccco1)c1cn(Cc2ccccc2)c2ccccc12 | i | 29 | . | . | -12 | 6 | -3 | -5
CC(C)CCNC(=O)c1c(N)n(CC2CCCO2)c2nc3ccccc3nc12 (stereo not drawn) | i | 6 | -51 | -1 | -16 | 10 | 0 | -3
O=c1[nH]c(=O)n(Cc2ccccc2)c(O)c1C=NCCCO | i | 54* | -33 | -17 | -22 | 52* | -55 | 0
CN1Cc2ccccc2-n2nncc2C1 | . | . | 24 | -24 | . | . | 2 | 5
COC(=O)C1=C(c2ccccc2OCc2ccccc2)C[C@@H]2CC[C@H]1N2C(=O)NCc1ccc(F)cc1 | . | . | 5 | -23 | 13 | . | -6 | -10
CN1CCN(CC(=O)Nc2ccc(Cl)cc2C(=O)c2ccccc2)CC1 | i | -5 | . | 8 | 21 | 0 | -1 | 0
CN1CCC(O)(c2cccs2)C(C(=O)c2cccs2)C1 (stereo not drawn) | i | -10 | 5 | -18 | 12 | 5 | -5 | -2
C[C@]12CCC3[C@@H](CCC4=CC(=O)CC[C@@]43CO)C1CCC2=O (stereo partly drawn) | i | -5 | 3 | -12 | -9 | -2 | 0 | 1
COc1ccc(CN2Cc3cnnn3-c3ccccc3C2c2ccccc2)cc1 (stereo not drawn) | . | . | -12 | -9 | . | . | -6 | -5
Cc1nc2cc(C(F)(F)F)ccc2n1C1CCN(Cc2nnnn2Cc2cccs2)CC1 | i | 8 | ? | -8 | 17 | 9 | 1 | -10
Cc1cc(OCC(=O)NCc2ccc(S(N)(=O)=O)cc2)c2c3c(c(=O)oc2c1)CCC3 | i | -20 | -5 | -18 | 4 | -5 | -4 | -4
CCc1ccc(OCCCN=C(C)c2c(O)n(C)c(=O)n(C)c2=O)cc1 | i | -4 | 21 | 1 | . | -4 | 8 | -10
Next entries:
SMILES | Rce1 inh | eIF4H inh | HIV Env fusion | Yeast UUG start | CSC inhib | PABP FP inh | MT1-MMP act inh | MT1-MMP act inh RFP | others
CC(C)C[C@H](NP(=O)(O)O[C@@H]1O[C@@H](C)[C@H](O)[C@@H](O)[C@H]1O)C(=O)N[C@@H](Cc1c[nH]c2ccccc12)C(=O)O | . | . | -8 | -25 | -5 | . | 0 | 4
CCOc1cccc(C2NCc3ccccc3-n3cccc32)c1O (stereo not drawn) | i | -6 | . | -16 | -4 | 10 | 3 | 4
CC(=O)OC1N=C(c2ccccc2Cl)c2cc(Br)ccc2NC1=O (stereo not drawn) | . | -6 | -2 | . | 0 | 6 | 3 | 0
Cc1nc2ccccc2c(=O)n1-c1ccccc1C(F)(F)F | i | 0 | 23 | 0 | -16 | 3 | 4 | 1
O=c1[nH]c(=S)n(CCC2=CCCCC2)c(O)c1/C=N/N1CCOCC1 | i | 8 | 0 | -6 | -12 | -13 | -2 | 0
Cc1cc(Cl)ccc1C(=O)C1CCCN(Cc2ccon2)C1 (stereo not drawn) | i | 0 | 19 | . | -3 | -4 | 2 | -1
C/C(=N\Nc1ccccc1)c1c(O)n(-c2ccccc2)c(=O)[nH]c1=O | i | -2 | -4 | -18 | 75* | 5 | 3 | -3
O=C(Nc1ccc(F)cc1F)c1cccn(Cc2ccccc2)c1=O | i | -8 | 2 | -9 | 21 | -17 | -1 | -12
O=C(O)Cn1cc(/C=C2\C(=O)NC(=O)N(Cc3ccco3)C2=O)c2ccccc21 | i | ? | 2 | . | -1 | 127* | -22 | 0 | PABP FP inh retest=74*
CC(=O)c1c(C)n(Cc2ccccc2Cl)c2ccc(O)cc12 | i | 1 | -13 | . | 17 | 0 | 5 | -1
Cn1c(O)c(N=Nc2cccc(S(=O)(=O)N3CCOCC3)c2)c(=O)n(C)c1=O | i | 2 | -45 | -10 | -2 | -4 | 3 | 5
Cc1cc(N2CCOCC2)ccc1/C=C1\C(=O)NC(=O)N(c2ccccc2)C1=O | . | 38 | -9 | . | -10 | 18 | -3 | 7
O=C1NC(=O)N(c2ccccc2)C(=O)/C1=C/c1ccoc1 | i | ? | 10 | -6 | -7 | -2 | -48 | 11
CN1CCCC2c3ccccc3CCC21 (stereo not drawn) | . | . | -3 | -24 | . | . | 0 | 5
COc1c(O)ccc2c1-c1c3c(cc4c1C(C2)N(C)CC4)OCO3 (stereo not drawn) | i | 82 | -14 | -13 | 4 | 20 | -7 | 0 | eIF4H inh retest=11;PABP FP inh retest=12
O=C(COc1ccccc1)N1CCN(C2CC3CCC2C3)CC1 (stereo not drawn) | i | -12 | -75 | -2 | . | 0 | 1 | -3
O=c1[nH]cnc2nc(-c3ccc(N(CCCl)CCCl)cc3)[nH]c12 | . | . | -39 | -16 | . | . | 2 | 0
CC(Cc1ccccc1)/[N+]([O-])=C\c1ccc(C(F)(F)F)cc1 (stereo not drawn) | i | . | -33 | -1 | 13 | . | 3 | 2
Cc1ccc(-n2c(O)c(C=Nc3ccccc3N)c(=O)[nH]c2=O)cc1C | i | 2 | . | -16 | 3 | -1 | 1 | 6

Entries shown so far containing two or more sulfur atoms (4):
SMILES | Rce1 inh | eIF4H inh | HIV Env fusion | Yeast UUG start | CSC inhib | PABP FP inh | MT1-MMP act inh | MT1-MMP act inh RFP | others
Cc1ccc(/C=C2\C(=O)NC(=S)N(c3ccccc3F)C2=O)s1 | . | 10 | 20 | . | 5 | 2 | 23 | 66
C=C(Cl)CSC(=S)N(CC)CC | . | . | . | 10 | 6 | . | -2 | 3
S=C1Nc2ccccc2Sc2ccccc21 | i | -6 | 15 | -15 | -6 | 0 | -2 | 1
CN1CCC(O)(c2cccs2)C(C(=O)c2cccs2)C1 (stereo not drawn) | i | -10 | 5 | -18 | 12 | 5 | -5 | -2
